Screens deposited in PubChem by National Center for Advancing Translational Sciences (NCATS).
miR-21 reporter = qHTS Assay for Modulators of miRNAs and/orActivators of miR-21; HeLa miR-21 FLuc reporter, luciferase, 48 h; Potency, µM (series often up to 38.3 µM), inactives show at the highest dose reporter change, positive = more light; 340,000 tested, under 10 active; active = well fitted rising curve with a large enough effect; inconclusive = small, poorly fitted or top-dose-only effect; inactive = no such curve, though single readings can be large or run the other way;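 further: % of control where 0% means no effect; miR-21 action dims this reporter so a rising signal means less miR-21 action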
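HeLa cells stably expressing CMV-driven firefly luciferase with a downstream miR-21 binding sequence, endogenously expressing miR-21, were treated with titrations (up to about 40uM final) for 48 hours at 37 degree Celsius. Luciferase luminescence was read after lysis.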
GLA inh pH 4.5 = qHTS Assay for Inhibitors of Human alpha-Galactosidase at pH 4.5; Alpha-galactosidase A (Homo sapiens), P06280; activity change, negative = inhibition, % at 105 µM; 230,000 tested, under 10 active; purified enzyme, 4-MU-alpha-Gal fluorescence, pH 4.5; inconclusive = small, poorly fitted or top-dose-only inhibition, or a rising curve; inactive = flat fitted curve, though single readings scatter; no compound was filed as active;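 further: 0% = full activity with enzyme and -100% = basal without enzyme; dose as in the result columns while the protocol names 77 µM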
Rango-impB inh = qHTS Assay for Inhibitors of Rango (Ran-regulated importin-beta cargo) - Importin beta complex formation | Importin subunit beta-1 (Homo sapiens), Q14974 | Rango CFP/YFP FRET sensor + importin beta, 45 min | Potency, µM (top dose mostly 92.2 µM), for inactives: at the top dose inhibition of complex formation | 340,000 compounds, 0.031% hits; active = rising FRET ratio curve, often small or poorly fitted; inconclusive = mostly compound fluorescence or quenching in the first reads; inactive = flat curves in all reads;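 further: potency means the concentration at half of the fitted maximal effect; 0% = DMSO wells and 100% = buffer wells lacking importin beta; nearly all actives have a fitted effect of over 15% in size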
Target sequence (Q14974 whole entry, looked up): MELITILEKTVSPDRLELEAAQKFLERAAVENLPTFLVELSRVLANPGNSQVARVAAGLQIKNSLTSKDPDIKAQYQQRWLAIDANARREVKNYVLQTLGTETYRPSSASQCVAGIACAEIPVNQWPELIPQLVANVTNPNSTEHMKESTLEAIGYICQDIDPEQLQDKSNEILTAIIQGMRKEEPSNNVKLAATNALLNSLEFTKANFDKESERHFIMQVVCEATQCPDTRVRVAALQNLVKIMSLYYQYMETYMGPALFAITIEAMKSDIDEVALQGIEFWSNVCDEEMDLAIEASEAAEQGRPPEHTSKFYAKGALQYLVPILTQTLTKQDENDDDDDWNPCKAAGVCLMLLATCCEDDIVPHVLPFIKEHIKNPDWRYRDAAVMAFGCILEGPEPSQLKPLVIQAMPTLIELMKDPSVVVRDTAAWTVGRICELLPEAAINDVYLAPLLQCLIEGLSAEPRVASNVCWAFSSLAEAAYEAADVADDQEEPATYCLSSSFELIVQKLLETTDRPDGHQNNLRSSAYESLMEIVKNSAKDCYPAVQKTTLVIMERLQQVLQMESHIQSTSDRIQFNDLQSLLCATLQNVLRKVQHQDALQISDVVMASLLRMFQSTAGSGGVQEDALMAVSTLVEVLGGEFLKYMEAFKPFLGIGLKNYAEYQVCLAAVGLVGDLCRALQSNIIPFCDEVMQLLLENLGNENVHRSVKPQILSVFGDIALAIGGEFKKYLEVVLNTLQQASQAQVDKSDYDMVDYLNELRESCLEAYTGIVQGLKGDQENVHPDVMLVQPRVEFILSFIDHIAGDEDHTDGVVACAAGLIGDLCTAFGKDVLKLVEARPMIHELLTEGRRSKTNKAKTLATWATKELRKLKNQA
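FRET biosensor Rango (snurportin 1 IBB between N-terminal EYFP and C-terminal Cerulean), 50 nM in PBS/1 mM DTT/0.02% Tween-20/0.1% BSA, preincubated 5 min RT with compound; 0.125 microM importin beta added, 45 min RT, CFP/YFP FRET ratio read.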
Rango dissoc inh = qHTS Assay for Inhibitors of RanGTP induced Rango (Ran-regulated importin-beta cargo) - Importin beta complex dissociation; Biochemical FRET Rango-importin beta, RanGTP-induced dissociation; 340,000 compounds, 0.071% hits; Snurportin-1 (Homo sapiens) + GTP-binding nuclear protein Ran (Homo sapiens) + Importin …; Potency, µM (highest dose often 46.1 µM), inactives show top-dose activity change, negative = inhibition; active means falling FRET ratio curve, often poorly fitted, with flat reads before Ran was added; inconclusive means other falling curves, or compound fluorescence or quenching; inactive means flat or rising ratio curve;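 further: potency means the concentration at half of the fitted maximal effect; % of control where 0% means no effect; nearly all actives have a fitted effect of over 45% in size; -100% = wells without RanGTP and RCC1; the record marks most hits as doubtful in a second field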
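Two FRET readings bracket the reaction: one 5 min after compound meets Rango–importin beta, another 45 min after RanGTP-RCC1 (0.6 uM Ran, 0.2 uM RCC1, 2 mM GTP) is added. Only the second defines inhibition.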
Active calls of the source: *; u = inconclusive; x = no result given.

SMILES	miR-21 reporter	GLA inh pH 4.5	Rango-impB inh	Rango dissoc inh
CCC/C=C1/CCCOC(C(=O)NCc2ccc(S(C)(=O)=O)cc2)(C(F)(F)F)C1 (stereo not given)	x	x	-1.3%	-5.0%
O=C(OCn1nnc2ccccc2c1=O)c1ccco1	-1.2%	-2.8	-0.6%	1.1%
N#Cc1nc(-c2ccco2)oc1NCCCn1ccnc1	-4.6%	8.4	1.5%	7.8%
COc1ccc([C@H]2CC(=O)c3c(O)cc(O)cc3O2)cc1O	-49.6%	-3.6	-0.5%	14.3%
O=C(O)c1ccc(CNC(=O)c2ccc3c(c2)OCCO3)cc1	9.8%	x	4.4%	-20.8%
S=c1nn[nH]n1C12CC3CC(CC(C3)C1)C2	-4.0%	1.0	-1.4%	1.2%
CCN(CC)C(=O)Cn1cc(S(=O)(=O)CC(=O)N2CC(C)OC(C)C2)c2ccccc21 (stereo not given)	x	x	-1.3%	11.7%
NC(=O)C1CCN(Cc2nc(-c3ccccc3)no2)CC1	-9.8%	6.1	0.7%	-9.8%
O=C(Cc1n[nH]c(=O)c2ccccc12)Nc1cccc(S(=O)(=O)N2CCCCCC2)c1	x	x	1.7%	-12.7%
O=C1N/C(=N/O)S/C1=C\c1ccccc1-n1cccn1	0.4%	-2.0	1.0%	12.7%
CCCCC(O)(c1ccc(OC)cc1)C(CN1CCOCC1)c1ccccc1 (stereo not given)	4.8%	x	0.8%	-18.3%
O=C(Nc1nnc(SCc2c(Cl)cccc2Cl)s1)C1CC(=O)N(c2ccc3c(c2)OCCO3)C1 (stereo not given)	4.5%	2.5	0.6%	-7.3%
CCN(CC)CCCN=Cc1c(O)n(-c2c(C)cccc2C)c(=O)c2ccccc12	0.4%	-6.1	u	-26.6%
COc1ccc(O[C@H]2C=C[C@@H](c3ccccc3)O[C@@H]2COC(=O)CC/C(C)=N/O[C@@H](C)CN2CCCCc3nc(C)c(C)cc32)cc1	-5.8%	-4.9	x	x
C=CCn1c(SCC(=O)Nc2ccc3c(c2)OCO3)nnc1-c1ccccc1	-6.7%	9.5	0.9%	7.6%
Cc1c(CCOC(=O)C23CC4CC(CC(C)(C4)C2)C3)sc[n+]1Cc1ccccc1	26.2%	1.7	-5.2%	19.8%
O=C(/C=C/c1ccc(-c2ccccc2[N+](=O)[O-])o1)c1ccc(Br)cc1	-5.9%	-5.2	-2.3%	-20.9%
CC(C)(C)OC(=O)Nc1ccc([C@H](NC(=O)OC(C)(C)C)C(=O)OC(C)(C)C)cc1	x	x	0.6%	-4.2%
CCOC(=O)c1c(NC(=O)CSc2nnnn2-c2ccc(OC)cc2)sc(C)c1C	-0.4%	-7.6	-3.6%	15.1%
Clc1ccccc1CSc1nnc(-c2ccccn2)n1Cc1ccco1	-9.0%	7.7	5.2%	-3.7%
CCN(CC)C(=O)COC(=O)c1ccc(O)cc1	-6.2%	3.1	3.3%	0.3%
CCCc1cc(N2CCCC2)n2nc(C)c(-c3ccccc3)c2n1	-2.9%	-2.5	-0.6%	-7.4%
O=C(NCCc1ccccn1)c1cncc(Br)c1	-8.2%	x	0.3%	9.8%
Cc1noc(C)c1C(=O)OCC(=O)Nc1cc(Cl)ccc1Oc1ccccc1	-0.5%	-10.4	-0.1%	7.0%
Cc1cccc(C2c3[nH]c4ccccc4c3CCN2C(=O)c2nn(C)c(=O)c3ccccc23)n1 (stereo not given)	2.4%	-4.8	5.0%	-0.6%
CN(Cc1cn(C)nc1-c1cccc(Cl)c1)Cc1nccn1C	1.2%	-1.6	-5.0%	7.8%
COc1ccccc1-c1noc(-c2cccs2)n1	-51.6%	-25.7	-1.1%	-14.0%
NC(=S)N/N=C\c1ccc(-c2cccc(Cl)c2Cl)o1	-10.0%	-6.6	u	-11.5%
COc1ccc(CC(=O)OCC(=O)c2ccc(OC)cc2)cc1	-5.0%	1.1	0.0%	-8.2%
COc1ccc(NC(=O)N(C)C[C@H]2Oc3ccc(NC(=O)Cn4cnnn4)cc3C(=O)N([C@H](C)CO)C[C@@H]2C)cc1	x	x	0.3%	-13.2%
CCOc1ccc(NC(=O)[C@@H]2CCCN2C(=O)c2cccs2)cc1S(=O)(=O)N1CCCCC1	x	x	1.3%	-8.2%
O=C(OCC(=O)N1CCN(C(=O)c2ccco2)CC1)c1cc(-c2ccco2)nc2ccccc12	-0.9%	0.7	u	-25.8%
COc1cc(NS(=O)(=O)c2ccc(NC(=O)CN3C(=O)c4ccccc4C3=O)cc2)nc(OC)n1	-3.2%	-2.7	-2.0%	-1.0%
Cc1ccc2c(nc3s/c(=C\c4ccc(-c5ccccc5C(=O)O)o4)c(=O)n32)c1C	-0.6%	x	u	u
COc1ccc(-n2nc3c(N)n[nH]c3cc2=O)cc1	-1.1%	-18.5	0.4%	4.7%
COc1ccc(CC(=O)NC2CCCc3ccccc32)cc1 (stereo not given)	-9.1%	-18.7	-1.5%	-0.9%
CCOC(=O)C1(Cc2ccc(OC)cc2)CCN(C(=O)c2cccc3nccnc23)CC1	-3.6%	-0.3	0.5%	4.6%
Cc1cccn2cc(COc3ccc(-c4ccccc4)cc3)nc12	-16.3%	-8.9	-3.5%	3.9%
Cc1ccn2cc(-c3cccc(NC(=O)CCC(=O)O)c3)nc2c1	25.1%	x	0.3%	5.1%
COc1ccc(/C=C(/NC(=O)c2ccccc2)C(=O)NCc2ccco2)cc1	-14.6%	x	-0.9%	-1.6%
Cc1ccc(CCNS(=O)(=O)c2cc3c(cc2C)NC(=O)CO3)cc1	5.1%	x	-0.6%	8.7%
CC1CN(C(=S)Nc2ccccc2)CC(C)O1 (stereo not given)	-5.1%	x	-1.1%	23.3%
CCOC(=O)N1CCN(C(=O)CCN2C(=O)COc3ccccc32)CC1	3.8%	-2.7	-0.7%	4.5%
Cc1ccc(NC(=O)CSc2nc(N)cc(=O)[nH]2)cc1S(=O)(=O)N1CCOCC1	-2.0%	0.5	-5.2%	-22.5%
Cc1ccc(S(=O)(=O)N2CCN(C(=O)/C=C/c3ccco3)CC2)cc1	-10.9%	-5.1	-0.2%	1.5%
COc1cccc(C2C=C(c3ccc(Br)s3)Nc3ncnn32)c1OC (stereo not given)	-2.3%	-9.0	u	u
O=C1CC(N2CCC(c3nc4ccccc4s3)CC2)C(=O)N1 (stereo not given)	-17.6%	9.4	0.6%	0.7%
COc1ccc(/C=N/n2c(-c3cc(C)[nH]n3)n[nH]c2=S)cc1	-6.0%	5.1	3.3%	-17.2%
CCCc1c(C(=O)N/N=C/C(C)=C/c2ccccc2)nnn1-c1nonc1N	-12.3%	x	-0.6%	3.9%
Cc1ccc(C(=O)NC(=S)NCC2CCCO2)cc1 (stereo not given)	-56.3%	-6.6	-0.8%	29.3%

Reprinted from the part before: 5 entries; new compounds follow.
SMILES	miR-21 reporter	GLA inh pH 4.5	Rango-impB inh	Rango dissoc inh
COc1cccc(C2C=C(c3ccc(Br)s3)Nc3ncnn32)c1OC (stereo not given)	-2.3%	-9.0	u	u
O=C1CC(N2CCC(c3nc4ccccc4s3)CC2)C(=O)N1 (stereo not given)	-17.6%	9.4	0.6%	0.7%
COc1ccc(/C=N/n2c(-c3cc(C)[nH]n3)n[nH]c2=S)cc1	-6.0%	5.1	3.3%	-17.2%
CCCc1c(C(=O)N/N=C/C(C)=C/c2ccccc2)nnn1-c1nonc1N	-12.3%	x	-0.6%	3.9%
Cc1ccc(C(=O)NC(=S)NCC2CCCO2)cc1 (stereo not given)	-56.3%	-6.6	-0.8%	29.3%
CC(=O)Nc1ccc(-c2csc(Nc3ccc(Cl)cn3)n2)cc1	0.9%	-4.2	-0.7%	1.5%
Cc1nc(SCc2nc3cc(Cl)c(F)cc3[nH]2)c2oc3ccccc3c2n1	x	x	u	-9.9%
COc1cc(N/C=C(\C(C)=O)c2ccccc2)cc(OC)c1	0.3%	-2.4	x	x
CCOC(=O)C(Sc1nn(C)c(=S)s1)C(C)=O (stereo not given)	-2.3%	8.4	9.3%	7.6%
CCCn1nnc(NC(=O)c2cccc(OCC)c2)n1	-49.8%	-7.7	0.0%	-8.8%
CCOC(=O)Cc1c(C)nc2cc(-c3ccc(C)cc3)[nH]n2c1=O	-22.0%	4.1	3.4%	-12.4%
Cc1cccnc1NC(=O)c1ccc(Cl)c(S(=O)(=O)N2CCCC2)c1	-1.1%	x	1.5%	-3.2%
CCN(c1cccc(C)c1)S(=O)(=O)c1ccc2c(c1)CCCN2C(C)=O	3.1%	x	5.8%	-5.9%
O=[N+]([O-])c1ccc(N2CCOCC2)c(S(=O)(=O)N2CCOCC2)c1	-6.3%	7.7	2.4%	6.7%
CN1C(=O)C(C)(C)c2cc(S(=O)(=O)NCC3CCC(C(=O)NCc4ccccc4)CC3)ccc21 (stereo not given)	2.3%	x	3.9%	-3.7%
O=C(NCC1CCCO1)C1CCN(S(=O)(=O)c2cccc3cccnc23)CC1 (stereo not given)	-5.3%	10.6	-0.9%	7.6%
COc1ccc(/C=C(/C#N)C(=O)Nc2ccc(C)cc2C)cc1C(=O)O	-6.0%	0.9	0.8%	-3.3%
O=C(O)c1n[nH]c2ccccc12	-3.3%	-5.5	0.5%	2.7%
Cc1ccc(Oc2cc([N+](=O)[O-])cc3c2C(=O)Nc2ccccc2O3)cc1	0.5%	2.1	10.9%	2.9%
CCc1c(C)nc2cc(-c3ccc(OC)c(OC)c3)nn2c1NCC1CC1	5.5%	-6.5	7.5%	6.6%
COC(=O)c1ccc2c(=O)n(CCCN3CCOCC3)c(=S)[nH]c2c1	-1.8%	-0.8	-0.2%	-6.2%
Cc1ccc(NS(=O)(=O)c2cccc(C(=O)N3CCN(C(=O)c4ccco4)CC3)c2)cc1	x	x	0.3%	2.6%
CC(C)(C)Nc1nc(Oc2ccc(=O)n(-c3ccccc3)n2)nc(N2CCOCC2)n1	-6.9%	-2.4	2.5%	6.8%
NC(=O)C1CCN(CC(=O)NC2CCCc3ccccc32)CC1 (stereo not given)	10.6%	-3.4	4.3%	4.5%
CN(CC(=O)Nc1ccc(F)cc1)C(=O)COC(=O)c1ccc(-c2ccccc2)cc1	x	x	2.6%	-1.3%
CCOc1ccccc1NC(=S)N(CCOC)C1CCN(C(C)=O)CC1	6.1%	0.0	-4.0%	1.5%
CCP(=O)(c1cccc([N+](=O)[O-])c1)c1cccc([N+](=O)[O-])c1	-1.9%	-1.6	u	5.0%
CC(C)c1ccc(NC(=S)NC2CCN(Cc3ccccc3)CC2)cc1	23.5%	3.3	0.2%	-29.1%
C/C(Nc1ccc(Cl)cc1)=C(/C#N)C(N)=O	-11.1%	0.1	0.0%	-0.7%
COc1ccc(N=C2O/C(=C/c3sc(=S)n(CC4CCCO4)c3O)N=C2C#N)cc1 (stereo not given)	-6.6%	-10.8	3.2%	2.6%
O=C(NCCNCc1cccc(Cl)c1)c1ccco1	x	x	u	u
CCO[C@H]1OC(C(=O)NCc2ccccc2)=C[C@@H](C2CCCCC2)[C@@H]1CCCO	4.1%	-7.9	-0.8%	-9.7%
S=c1[nH]nc(CCc2ccccc2)n1Cc1ccccc1	1.4%	2.4	u	2.1%
COc1ccc(COC(=O)c2cccc(S(=O)(=O)N3CCN(C(C)=O)CC3)c2)cc1	x	x	-0.1%	1.7%
CCOc1ccc(Oc2ccccc2NC(=O)C2=COCCO2)cc1	x	x	-1.6%	8.6%
CCC(=O)OCC(=O)Nc1cc([N+](=O)[O-])ccc1OC	-0.9%	0.4	-5.2%	1.5%
O=C(NC(=S)Nc1ccc(S(=O)(=O)N2CCCCC2)cc1)c1ccccc1	-6.9%	1.7	0.7%	0.1%
COc1ccc(S(=O)(=O)Nc2ccc(N3CCOCC3)cc2)cc1	-1.3%	x	-5.3%	22.8%
Cc1cccc2c(C(=O)Nc3ccc(Br)cc3)cc(-c3ccccn3)nc12	-3.5%	7.5	-2.2%	-8.7%

These rows are one share of the data; count on the stated rates, not on these rows.
